Source: PubChem BioAssay (ICCB-Longwood Screening Facility, Harvard Medical School)
HCMV UL50-53 inh – inhibitors of HCMV UL50-UL53 interaction, biochemical, HTRF | HCMV UL50-UL53 nuclear egress complex (human cytomegalovirus) | normalized percent inhibition | inhibition, % (no concentration beside the values) | hit rate 0.15% among 190,000;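 active = both replicates at 50% or more, plus weaker picks with an unusually low signal ratio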;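 also: stock transfer was 100 nL into about 20 µL; 0% = negative control wells and 100% = wells with untagged competitor protein; inactives centre near -12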
GIV-Gai inh – inhibitors of GIV peptide binding to Galpha-i3, primary screen, biochemical, fluorescence polarization, FITC-GIV GBA peptide, rat Galphai3 | 90 min; active compounds read low; scaled: aluminum fluoride 0%, vehicle 100% | percent of control (FP), % (test concentration not listed) | hit rate 0.42% among 210,000;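 active = replicate mean at 85% of control or lower, very high polarization wells dropped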;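 also: lower values mean more displacement of the GIV peptide from Galpha-i3; wells of about 15 µL received 100 nL stock; the first replicate is given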
Target sequence (P08753 whole entry, looked up): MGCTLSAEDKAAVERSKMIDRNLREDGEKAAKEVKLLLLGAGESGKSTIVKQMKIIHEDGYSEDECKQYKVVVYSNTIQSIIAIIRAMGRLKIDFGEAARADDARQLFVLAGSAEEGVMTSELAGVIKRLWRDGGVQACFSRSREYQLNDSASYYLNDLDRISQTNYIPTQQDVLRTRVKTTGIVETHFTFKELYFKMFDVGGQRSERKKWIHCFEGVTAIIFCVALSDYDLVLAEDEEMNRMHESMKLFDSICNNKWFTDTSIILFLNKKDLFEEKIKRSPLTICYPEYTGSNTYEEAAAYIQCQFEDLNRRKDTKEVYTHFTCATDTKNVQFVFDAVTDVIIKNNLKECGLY
Sa growth 42C – S. aureus growth inhibition at 42 and 30 °C, primary screen, LtaS inhibitor project, RN4220, two temperatures; OD600, 20 h, 42 °C; active compounds read low; relative growth, % (no concentration beside the values); hit rate 0.53% among 170,000;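 active = growth at 42 °C up to 50% and 20 or more points under that at 30 °C, or under 10% at both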;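 also: 300 nL library stock went into each well; scaled to the means of positive and negative controls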
Sa growth 42C second temp – recorded beside Sa growth 42C, whose call it bears; relative growth, %; measured here: growth at 30 °C;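 optical density after 20 h as mean of two plates; 100% = untreated growth and lower means inhibition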
* hit, by the source's call; x = not tested or not shown; & = joins results of further samples.

SMILES | HCMV UL50-53 inh | GIV-Gai inh | Sa growth 42C | Sa growth 42C second temp
Cc1cc(C)c2c(N)c(C(=O)c3ccccc3)sc2n1 | -2 | 98 | 85 | 88
Cc1oc(-c2ccc(C(=O)NC3CC3)cc2)nc1COc1ccccc1 | -10 | 102 | 112 | 96
Cc1ccc2[nH]c(=O)c3cc(C(=O)NCCCN4C(C)CCCC4C)sc3c2c1 (stereo unspecified) | -11 | 114 | 91 | 84
Cc1nc(SCC(=O)O)c(C#N)cc1C(=O)Nc1ccccc1 | -18 | x | 81 | 92
CCOC(=O)Cn1c(C(F)(F)F)nc2ccccc21 | 5 | 107 | 98 | 90
Cc1ccc(C)c(N2CCN(C(=O)CN(C)S(=O)(=O)c3ccc4c(c3)nnn4C(C)C)CC2)c1 | -9 | 109 | x | x
Cc1ccc(/C=C/c2cc(=O)n3ccsc3n2)cc1 | -96 | 102 | x | x
Cc1ccc(-c2ccc(N3CCCC(C(=O)NC4CCCCC4)C3)nn2)cc1 (stereo unspecified) | -39 | 100 | x | x
O=C(O)c1ccccc1Nc1ccccc1 | -4&1 | 100 | x | x
O=C(COC(=O)c1ccccc1)Nc1ncc(C(F)(F)F)cc1Cl | -4 | x | 82 | 83
CCN(CC)C(=O)Cn1c(=O)n(CCCCCC(=O)Nc2ccccc2)c(=O)c2sccc21 | -1 | 107 | 103 | 91
Cc1ccnc(NC(=O)CCC2COc3ccccc3O2)c1 (stereo unspecified) | x | 105 | 90 | 92
CCCn1nnnc1NCc1ccc(C(C)C)cc1 | 0 | x | 86 | 74
Cc1cc(C)cc(OCc2ccc(C(=O)NC3CCOC3=O)o2)c1 (stereo unspecified) | 8 | 100 | 92 | 92
O=C(CCC(=O)N1Cc2ccccc2Oc2ncccc21)NCc1cccnc1 | -5 | 109 | x | x
CC(C)(C#Cc1cncnc1)OC(=O)Nc1ccc(Cl)cc1 | 4 | 105 | 108 | 97
CCCc1[nH]nc2c1C(c1cccc(OC)c1)C(C#N)=C(N)O2 (stereo unspecified) | -38 | 103 | 87 | 77
O=C(Nc1ccc2nc(SCC(=O)N3CCCC3)sc2c1)C1CCCCC1 | -20 | 98 | x | x
COc1ccc(CNC(=O)c2cccn2-c2nnc(N3CCOCC3)s2)cc1 | 6 | 112 | x | x
CCOC(=O)N1CCN(S(=O)(=O)c2cccc(S(C)(=O)=O)c2)CC1 | -34 | 106 | 91 | 84
CNC(=S)N1CCN(c2ccccc2F)CC1 | 0 | 107 | 66 | 81
CC1=C(C(=O)Nc2cccc(C(=O)NC(C)C)c2)SCCO1 | -23 | 101 | 91 | 89
CCOC(=O)c1ccc(NC(=O)CCc2c(C)n(CC)c3cc(-c4ccccc4OC)nn3c2=O)cc1 | -36 | 99 | 107 | 89
O=C(O)C1CCCNC1 (stereo unspecified) | -1&-19 | 102 | x | x
Cc1c(CC(=O)NCCc2ccccc2F)c(=O)oc2c(C)c3occ(C(C)(C)C)c3cc12 | -19 | 101 | 113 | 97
O=C(O)c1cc(N2C(=O)C3C4C=CC(C4)C3C2=O)cc(N2C(=O)C3C4C=CC(C4)C3C2=O)c1 (stereo unspecified) | -14 | 108 | x | x
CC1CCCC(NC(=O)C2(C)CCC(=O)N2C(C)c2ccccc2)C1C (stereo unspecified) | 5 | 107 | 106 | 80
Cc1occc1C(=O)NN1CC(=O)N(C23CC4CC(CC(C4)C2)C3)C1=O | 9 | 106 | 81 | 98
CCOC(=O)c1cc(-c2ccco2)nn1-c1cccc(Cl)c1 | 4 | x | 103 | 99
Cc1ccc(-c2nnc(Nc3ccc(C(=O)N(C)C)cc3)c3ccccc23)cc1S(=O)(=O)N(C)C | -47 | 104 | 92 | 80
CCOc1ccc(C(=O)c2oc3ccccc3c2NC(=O)c2ccc(Cl)cc2)cc1 | -17 | 95 | x | x
Cc1cc2c(cc1C)NC(CC(=O)Nc1ccccc1SC(F)(F)F)C(=O)N2 (stereo unspecified) | -41 | 110 | 107 | 88
CC1CCCN(C(=O)Cn2c(=O)c3ccccc3n3c(=S)sc(-c4ccccc4F)c23)C1 (stereo unspecified) | -24 | 116 | x | x
CC(=O)OC1c2ccccc2C(=O)N1Cc1ccccc1 (stereo unspecified) | -29 | 102 | 83 | 91
CCc1cccc(NC(=O)c2cc3c(s2)-c2ccccc2OC3)c1 | 1 | 106 | 88 | 105
COc1cc(/C=C(\C#N)c2nc3ccccc3[nH]2)cc(Cl)c1OCc1ccccc1Cl | -5 | 106 | 104 | 87
CCOC(=O)/C(C#N)=C/Nc1cnc(N(C)C)c(C(F)(F)F)c1 | -20 | 105 | 93 | 86
COc1ccc(C(=O)Nc2ccc(-c3nc4ccccc4s3)cc2C)cc1Cl | -23 | 108 | 115 | 92
COc1ccc(CNC(=O)C(Cc2ccccc2)NS(=O)(=O)c2ccc3c(c2)CCN3C(C)=O)cc1 (stereo unspecified) | -1 | 107 | 84 | 89
O=C(NCCc1c[nH]c2ccccc12)c1cc2c(s1)-c1ccccc1OC2 | 4 | 100 | 100 | 74
CN(CC(=O)Nc1ccc(C(F)(F)F)cc1)S(=O)(=O)c1cccs1 | x | 100 | 87 | 79
CC1CCN(c2nc3ncnc(SCC(=O)NCCC4=CCCCC4)c3s2)CC1 | 15 | 111 | x | x
COc1ccc(C(=O)Nc2nc3c(s2)CCCC3)cc1Cl | -14 | 98 | 107 | 87
Cc1nc(-c2cccc(S(=O)(=O)N3CCC(C(=O)NCc4ccccc4Cl)CC3)c2)no1 | x | 109 | 111 | 93
CCOC(=O)c1c(C)n(-c2ccccc2)c2ccc(OC(=O)c3ccccc3[N+](=O)[O-])cc12 | 3 | 107 | x | x

Retrieved by compound from the list above (four):
SMILES | HCMV UL50-53 inh | GIV-Gai inh | Sa growth 42C | Sa growth 42C second temp
O=C(NCCc1c[nH]c2ccccc12)c1cc2c(s1)-c1ccccc1OC2 | 4 | 100 | 100 | 74
Cc1nc(-c2cccc(S(=O)(=O)N3CCC(C(=O)NCc4ccccc4Cl)CC3)c2)no1 | x | 109 | 111 | 93
CCOC(=O)/C(C#N)=C/Nc1cnc(N(C)C)c(C(F)(F)F)c1 | -20 | 105 | 93 | 86
COc1ccc(C(=O)Nc2ccc(-c3nc4ccccc4s3)cc2C)cc1Cl | -23 | 108 | 115 | 92

Following part
SMILES | HCMV UL50-53 inh | GIV-Gai inh | Sa growth 42C | Sa growth 42C second temp
CCN(CC)S(=O)(=O)c1ccc(Nc2c3c(nc4ccccc24)CCCC3)cc1 | x | 98 | 77 | 65
Cc1noc(C)c1C(=O)NC12CC3CC(CC(C3)C1)C2 | -19 | x | 96 | 86
Cc1cccc(CNC(=O)c2sc3ncnc(N(C)C4CCCCC4)c3c2C)c1 | x | 106 | 135 | 94
COc1ccc(OC)c2c1sc(=NC(=O)C1CCCCC1)n2C | -26 | 99 | 98 | 87
O=C(CCc1nc(-c2cc3ccccc3[nH]c2=O)no1)Nc1nccs1 | -14 | 103 | x | x
CCN(CC)S(=O)(=O)c1ccc2c(c1)nc(CN(C)C(=O)Nc1ccc(Cl)cc1)n2C | x | 109 | 80 | 85
COc1ccccc1OCc1ccc(C(=O)N2CCc3ccccc3C2)o1 | -31 | 95 | 83 | 57
CCCn1c(=S)[nH]c2cc(C(=O)N3CCc4ccccc4C3)ccc2c1=O | -37 | 103 | 82 | 86
COC(=O)c1ccccc1NC(=O)N1CCN(c2ccc(=O)n(-c3ccc(F)cc3)n2)CC1 | -30 | 100 | x | x
COc1ccc2oc(=O)c(C(=O)Nc3ccc(O)cc3)cc2c1 | -25 | 95 | 109 | 82
COc1cc(OC)c(NC2=CC(=O)C(=O)c3ccccc32)cc1Cl | x | 89 | 85 | 23
N#CC(C(=O)c1ccccc1Cl)=C1SCCCS1 | -69 | 110 | 98 | 97
CCc1ccc(NC(=O)c2noc3c2CCCC3)cc1 | -7 | 101 | 100 | 89
Cc1cc(C)c(S(=O)(=O)Nc2cc(C(=O)O)cnc2N2CCC(N3CCCCC3)CC2)cc1C | -26 | 97 | x | x
CCc1c(C#N)c(N)nc(SCC(=O)OCc2ccccc2)c1C#N | 26 | 101 | 86 | 100
CCn1c(-c2ccc3c(c2)OCCO3)cnc1SCC(=O)c1ccc2c(c1)CCN2S(C)(=O)=O | -24 | x | 80 | 89
Nc1c(-c2ccccc2)nc2sccn12 | -4 | x | 82 | 78
Cc1ccc(NS(C)(=O)=O)c(C(=O)c2ccccc2)c1 | -11 | 104 | 95 | 99
Cc1ccc(C(=O)N=c2c(=O)nc(C)n(-c3ccccc3)n2C)cc1 | -8 | x | 83 | 88
Cn1c(CN(c2ccc(F)cc2)S(C)(=O)=O)nnc1SCC(=O)N1CCc2ccccc21 | -18 | 97 | x | x
COCCn1c(=O)[nH]c2cc(C(=O)Nc3nnc(C)s3)ccc21 | 0 | 98 | 87 | 89
CCC1CCCCN1C(=O)c1cnn2c1NC(c1ccco1)CC2C(F)(F)F (stereo unspecified) | -25 | 103 | 122 | 92
CC1CCN(S(=O)(=O)c2ccc3[nH]c(=O)cc(C(=O)NCCCN4CCOCC4)c3c2)CC1 | x | 103 | 92 | 79
O=c1[nH]c(CNCc2cccs2)nc2ccsc12 | 2 | x | 82 | 96
O=C1CCC(=O)N1OCc1ccc(F)cc1 | 10 | 105 | 101 | 106
O=C(COCc1cc(-c2ccco2)on1)Nc1cc(C(F)(F)F)ccc1Cl | -33 | 102 | 82 | 79
O=C(Cn1c(=O)oc2ccccc21)Nc1sc2c(c1C(=O)O)CCCC2 | -14 | 97 | x | x
COc1ccc2c(Cl)c(-c3nnc4n3CCC4)sc2c1 | -29 | x | 76 | 99
CCOc1ccc(CNC(=O)C2CCN(c3nc4ccccc4o3)CC2)cc1 | -11 | 100 | 107 | 91
CCCN1C2=C(C(=O)CCC2)C(c2ccc(F)cc2)C2=C1c1ccccc1C2=O (stereo unspecified) | -16 | 99 | 104 | 75
CC(=O)Nc1ccc(-c2nc3cc(C)ccc3o2)cc1 | -37 | 104 | 106 | 94
Cc1ccccc1-c1nnn(CC(=O)NC2CCCCC2)n1 | 18 | x | 94 | 100
COc1cc(/C=C2\C(=O)NC(=S)N(c3ccccc3)C2=O)ccc1OCc1ccc(C(=O)O)cc1 | -27 | 107 | x | x
CC(C)C(NC(=O)C1CCCCC1)C(=O)NCc1cccnc1 (stereo unspecified) | 7 | 101 | 102 | 94
COC(=O)C1CCN(c2ncc(C(F)(F)F)cc2Cl)CC1 | 8 | 103 | x | x
FC(F)(F)c1cc(C#CCN2CCOCC2)cc(C(F)(F)F)c1 | -12 | 95 | 98 | 91
COc1ccc(-n2nc(C(=O)N3CCCc4ccccc43)c3ccccc3c2=O)cc1 | -3 | 106 | 81 | 98
CCc1ccc(Nc2sc(C(=O)c3ccc(F)cc3)c(N)c2S(=O)(=O)c2ccccc2)cc1 | -21 | 106 | 96 | 88
O=C(Nc1ccc2nc(SCCOc3ccccc3Cl)sc2c1)c1ccco1 | 7 | 101 | 93 | 45
CC1(C)OC(=O)C(=CNC(Cc2ccccc2)C(=O)O)C(=O)O1 (stereo unspecified) | 7 | 108 | 93 | 92
Cc1ccc(OCC(=O)NCC(=O)OCc2cc(=O)n3nc(C(C)C)sc3n2)cc1 | -32 | 102&98 | 91 | 94
Cc1cc(C)n(-c2ncnc3c2cnn3-c2ccccc2)n1 | -5 | 103 | 79 | 87
Cc1ccc(NC(=O)Cn2cc(C(=O)c3ccc(C)cc3)c(=O)c3ccccc32)cc1 | 10 | 98 | x | x
COc1ccc(-c2csc(=NCCO)n2-c2ccccc2)cc1 | -11 | 98 | 56 | 17
COc1cccc(C2=NS(=O)(=O)N(C)C(C(=O)Nc3cccc(O)c3)=C2)c1 | -19 | 103 | 99 | 84
Cc1ccccc1-c1nc(CN2CCC(C(=O)NCCCN3CCCC(C)C3)CC2)c(C)o1 (stereo unspecified) | -20 | 101 | 98 | 82
CC1(C)CC(=O)C2=C(C1)OC(N)=C(C#N)C2c1ccc(N2CCOCC2)c([N+](=O)[O-])c1 (stereo unspecified) | -23 | 98 | x | x
O=C(/C=C/c1cn(-c2ccccc2)nc1-c1ccccc1)OCC(=O)N1CCCC1 | -38 | x | 85 | 73
CCOC(=O)c1c(C)oc2c(Cl)cc(NS(=O)(=O)c3ccc(C)cc3C)cc12 | -23 | 101 | x | x
Cn1c(SCC(=O)N2CCOCC2)ncc(C(=O)Nc2ccc(F)cc2)c1=O | x | 96 | 96 | 84
Clc1cc(Cl)c2nsnc2c1 | -18 | 101 | 93 | 70
COc1cc(OC)cc(C(=O)N(CCCN(C)C)c2nc3ccc(F)cc3s2)c1 | -8 | 111 | x | x
COC(=O)c1c(NC(=O)c2ccc3c(c2)CC(c2ccccc2)OC3=O)sc2c1CCC2 (stereo unspecified) | -15 | 105 | x | x
COc1cc(/C=C2\C(=O)NC(=S)N(c3ccc(C(C)(C)C)cc3)C2=O)ccc1OCC(=O)O | -5 | 109 | x | x
CCOc1ccc(CCNC(=O)c2cc3cc4cc(OC)ccc4nc3s2)cc1OCC | -11 | 107 | 83 | 90
CCOCCCNC(=O)C(C)N1C(=O)CCCc2ccccc21 (stereo unspecified) | -16 | 106 | x | x

One compound at a time, as listed above. Screens in order: HCMV UL50-53 inh	GIV-Gai inh	Sa growth 42C	Sa growth 42C second temp
COc1cc(/C=C2\C(=O)NC(=S)N(c3ccccc3)C2=O)ccc1OCc1ccc(C(=O)O)cc1 in the list: -27	107	x	x
CCC1CCCCN1C(=O)c1cnn2c1NC(c1ccco1)CC2C(F)(F)F (stereo unspecified) in the list: -25	103	122	92
